Screening results from PubChem BioAssay.
Cruzain Triton = cruzain (T. cruzi) inhibition with detergent. P25779. purified cruzain, Z-FR-AMC fluorescence, 0.01% Triton. 0.43% of 200,000 active. Potency, µM, for inactives: max response, negative = inhibition, hits mostly inhibitors;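 also: plate controls were neutral wells for no effect and buffer without enzyme for full effect; nearly all actives have a fitted effect of over 40% in size; top concentration of the series not given in the record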
Target sequence (P25779 123-467 limits assumed): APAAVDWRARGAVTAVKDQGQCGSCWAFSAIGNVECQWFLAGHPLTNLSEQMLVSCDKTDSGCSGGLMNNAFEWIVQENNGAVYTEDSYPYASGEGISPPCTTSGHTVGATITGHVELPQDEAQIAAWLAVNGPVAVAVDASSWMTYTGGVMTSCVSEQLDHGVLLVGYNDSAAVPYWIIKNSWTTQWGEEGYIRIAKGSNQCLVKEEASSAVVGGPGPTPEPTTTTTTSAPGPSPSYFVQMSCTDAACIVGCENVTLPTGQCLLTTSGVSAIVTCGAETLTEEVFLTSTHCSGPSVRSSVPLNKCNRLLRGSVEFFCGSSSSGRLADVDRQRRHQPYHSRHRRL
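Read-out: AMC fluorescence (360 nm excitation, 450 nm emission), four reads over 2 min, first-to-third difference used. Conditions: cruzain 1.5 nM, Z-FR-AMC 2 uM, pH 5.5 acetate, 5 mM DTT, 0.01% Triton X-100.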
RE007 growth inh = less growth of the S. pombe RE007 Vpr strain. 0.21% of 360,000 active. S. pombe RE007 Vpr strain, BacTiter-Glo ATP luminescence, 24 h; control for the full effect not named in the record. AID 651644. Potency, µM (doses to about 92.2 µM), inactives show at the highest dose activity change, negative = less growth; active = well fitted falling curve with a large enough effect; inconclusive = small, poorly fitted or top-dose-only effect; inactive = no such curve, though single readings can be large or run the other way;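 also: % is scaled to controls: 0 for no effect and ±100 for the full control effect; nearly all actives have a fitted effect of over 50% in size; the assay follows cell death caused by Vpr and the record does not say whether a fall means rescue or toxicity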
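Fission yeast RE007 carrying one integrated HIV-1 vpr copy, seeded at OD 0.01 in PMG+AL medium with 23 nL pinned compound. Grown 24 h at 30 degrees; viability read by BacTiter-Glo luminescence after 5 min.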
Lassa entry inh = inhibitors of Lassa virus binding or cell entry. Lassa virus pseudotype entry inhibition, cell reporter; control for the full effect not named in the record. Potency, µM (doses to about 37.9 µM), for inactives: at the highest dose activity change, negative = inhibition, actives largely listed as inhibitors. 1.2% of 300,000 active. AID 540256; active means well fitted inhibition curve with a large enough effect; inconclusive means small, poorly fitted or top-dose-only effect, or effect the other way; inactive means flat fitted curve, though single readings scatter; tested in HEK293 cells; also: % is scaled to controls: 0 for no effect and ±100 for the full control effect; nearly all actives have a fitted effect of over 50% in size; luciferase read-out
NS1 inh = blocks influenza NS1 protein function | Potency, µM (doses to about 46.1 µM), inactives show at the highest dose activity, positive = more growth | S. cerevisiae slowed by influenza A NS1, growth recovery by OD600 | 0.4% of 270,000 active; active means well fitted rising curve with a large enough effect; inconclusive means small, poorly fitted or top-dose-only effect; inactive means no such curve, though single readings can be large or run the other way; also: nearly all actives have a fitted effect of over 50% in size
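OD600 was taken as the measure of yeast growth restored by compound in an NS1-expressing S. cerevisiae strain. Cells had been washed out of glucose medium and diluted 1:100 into galactose -URA medium, pH 6.0.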
2A StopGo = FMDV 2A StopGo reporter, luciferase signal. human cells with a luciferase reporter of 2A StopGo recoding; control for the full effect not named in the record. Potency, µM (top dose mostly 57.9 µM), for the others: at the top dose signal change, negative = less light. AID 1159524. 1.2% of 410,000 active; active = well fitted falling curve with a large enough effect; inconclusive = small, poorly fitted or top-dose-only effect; inactive = no such curve, though single readings can be large or run the other way; tested in HEK293T cells; also: % is scaled to controls: 0 for no effect and ±100 for the full control effect; nearly all actives have a fitted effect of over 45% in size; luciferase light after 4 h
MARV entry inh = inhibitors of Marburg virus binding or cell entry; 1.8% of 300,000 active; Marburg virus pseudotyped entry inhibition, cell reporter; control for the full effect not named in the record; about a third of the inactives were read at about 46 µM; Potency, µM (highest dose often 37.8 µM), for the others: top-dose activity change, negative = inhibition, actives largely listed as inhibitors; active = well fitted inhibition curve with a large enough effect; inconclusive = small, poorly fitted or top-dose-only effect, or effect the other way; inactive = flat fitted curve, though single readings scatter; tested in HEK293 cells; about a fifth of its hits are not listed in these tables; also: % is scaled to controls: 0 for no effect and ±100 for the full control effect; luciferase read-out
SARS PLP yeast = SARS-CoV PLP inhibition in yeast. S. cerevisiae expressing SARS-CoV PLpro, growth rescue; control for the full effect not named in the record. Potency, µM (series often up to 32.9 µM), without a hit: at the top dose activity, positive = growth rescue. AID 485353. 0.19% of 330,000 active; active means well fitted rising curve with a large enough effect; inconclusive means small, poorly fitted or top-dose-only effect; inactive means no such curve, though single readings can be large or run the other way; also: 0% is about no effect; nearly all actives have a fitted effect of over 55% in size; growth read by luminescence after 48 h
Cruzain inh noDet = inhibitors of Trypanosoma cruzi cruzain without detergent; P25779; Potency, µM, inactives show max response, negative = inhibition, most hits filed as inhibitors; purified cruzain, Z-FR-AMC fluorescence, no detergent; 2.3% of 200,000 active;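 also: plate controls were enzyme without inhibitor for no effect and buffer without enzyme for full effect; nearly all actives have a fitted effect of over 40% in size; top concentration of the series not given in the record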
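Detergent-free condition (0.00005% Triton X-100) in acetate buffer pH 5.5 with DTT. 1.5 nM enzyme and compound were pre-mixed 15 min, then 2 uM Z-FR-AMC substrate added; reaction progress from fluorescence change between first and third reads (60 s).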
* hit, by the source's call; ? = inconclusive; / = not tested or not shown; & = joins results of further samples; [ ] = remark or other dose. Unless noted, calls follow the shape of the dose curve; as a rule, active = well fitted curve in the direction sought with a large enough effect; inconclusive = small, poorly fitted or top-dose-only effect, or another doubt; inactive = no such curve, though single readings can be large; an effect the other way counts as inactive or inconclusive. Potency is read from the fitted curve at half-maximal effect.

Each structure is followed by: Cruzain Triton	RE007 growth inh	Lassa entry inh	NS1 inh	2A StopGo	MARV entry inh	SARS PLP yeast	Cruzain inh noDet
#1 CC1=C(C(=O)Nc2cccc(F)c2)C2(CCCCC2)OC1=O
→ -2.4%	/	-1%[46.1 µM]	/	-3%	/	/	9%
#2 Cc1ccccc1C(=O)NC(NC(=O)c1ccccc1C)c1cccc([N+](=O)[O-])c1
→ 1.1%	0%	?	-3%	5%	?	17%	?
#3 CNc1oc(-c2ccc(Cl)cc2)nc1C#N
→ 0.1%	-16%	29%	2%	39%[activator]	?	-12%	17%
#4 COc1ccc2nc3sc(C(=O)NCc4cccs4)c(N)c3cc2c1
→ -3.7%	/	/	?	/	3%	4%	-20%
#5 COCCNC(=S)Nc1cccc2cnccc12
→ /	-16%	-17%[46.1 µM]	/	-1%	?	0%	/
#6 Cc1ccccc1S(=O)(=O)Cc1ccc(C(=O)NC2CCCCC2C)o1 (centres undefined)
→ /	-6%	-21%[46.1 µM]	5%	-25%	-25%[46.1 µM]	-2%	/
#7 CNC(=S)N(CCc1c(C)[nH]c2ccccc12)Cc1cccnc1
→ /	11%	-23%[46.1 µM]	1%	-11%	-12%[46.1 µM]	1%	/
#8 CCCc1nnc(SCC(=O)N2CCCC2)n1Cc1ccco1
→ /	7%	15%	-2%	3%	/	0%	/
#9 Cc1ccc(Cl)cc1NC(=O)CSCc1cnn(-c2ccccc2)c1-n1cccc1
→ -6.7%	/	/	/	-9%	?	/	-7%
#10 CC(C)CCC1CC(CSC(=N)N)OC1=O (centres undefined)
→ 3.7%	22%	?	7%	-27%	?	/	-8%
#11 Cc1ccc(-n2c(=O)c3cccnc3n2CC(=O)NCc2ccc(Cl)cc2)cc1
→ -7.3%	/	7%[46.1 µM]	/	27%	3%[46.1 µM]	/	-21%
#12 CN(C)CC(C)(C)CNC(C(=O)Nc1ccc(Cl)cc1C(F)(F)F)c1ccccc1 (centres undefined)
→ /	-4%	2%[46.1 µM]	/	-8%	?	1%	/
#13 Cc1ccc(C)c(-c2cc(C(=O)NCc3cccs3)c3ccccc3n2)c1
→ -4.5%	-10%	-21%	3%	-17%	-4%	-10%	0%
#14 CC(CS(=O)(=O)c1ccc2c(c1)NC(=O)CS2)C(=O)N1CCN(c2cccc(Cl)c2)CC1 (centres undefined)
→ /	8%	-22%[46.1 µM]	5%	-25%	-3%[46.1 µM]	2%	/
#15 CCCNc1nc2c(c(=O)[nH]c(=O)n2C)n1CCCc1ccccc1
→ 2.4%	5%	0%	-9%	-4%	6%	-6%	11%

Numbers 1–2 from above:
Each structure is followed by: Cruzain Triton	RE007 growth inh	Lassa entry inh	NS1 inh	2A StopGo	MARV entry inh	SARS PLP yeast	Cruzain inh noDet
#1 CC1=C(C(=O)Nc2cccc(F)c2)C2(CCCCC2)OC1=O
→ -2.4%	/	-1%[46.1 µM]	/	-3%	/	/	9%
#2 Cc1ccccc1C(=O)NC(NC(=O)c1ccccc1C)c1cccc([N+](=O)[O-])c1
→ 1.1%	0%	?	-3%	5%	?	17%	?

Remaining list, next part.
Each structure is followed by: Cruzain Triton	RE007 growth inh	Lassa entry inh	NS1 inh	2A StopGo	MARV entry inh	SARS PLP yeast	Cruzain inh noDet
#16 CCOC(=O)c1cnc2cc(-c3ccc(Cl)cc3)nn2c1-c1ccccc1
→ -1.6%	/	20%[46.1 µM]	/	-5%	5%[46.1 µM]	/	7%
#17 COc1cc(CNC(C)(C)CO)cc(Br)c1OCc1ccc(Cl)cc1
→ -2.3%	-24%	?	-8%	0%	?	-14%	-4%
#18 C=CCN1C(=O)C(CC(=O)Nc2ccc(OC)cc2)SC1=Nc1ccc(S(N)(=O)=O)cc1 (centres undefined)
→ /	4%	-1%[46.1 µM]	/	-10%	-2%[46.1 µM]	6%	/
#19 CC1CN(CCOc2ccc([N+](=O)[O-])cc2)CC(C)O1 (centres undefined)
→ -1.3%	0%	12%	-2%	-15%	?	2%	8%
#20 COCCCN1C(=O)C(=O)/C(=C(/O)c2ccc3c(c2)OCCO3)C1c1ccc(C(=O)OC)cc1 (centres undefined)
→ -4.4%	-3%	17%	0%	-21%	28%	-1%	-7%
#21 COc1ccc(NC2CCCN(C(=O)c3oc(C)cc3C)C2)cc1OC (centres undefined)
→ /	-6%	?	23%	-19%	2%	2%	/
#22 CCc1nn2c(=O)cc(COC(=O)c3cccs3)nc2s1
→ -2.8%	/	?	/	42%[activator]	/	/	-1%
#23 COc1cc(CC(=O)OCC(=O)N(C)C2CCCCC2)cc(OC)c1OC
→ /	-12%	9%	/	-24%	3%	5%	/
#24 CCN(CC)S(=O)(=O)c1cccc(NC(=O)COc2ncnc3sccc23)c1
→ /	9%	-4%[46.1 µM]	-3%	-2%	-3%[46.1 µM]	1%	/
#25 O=C(NCCc1ccc(C(F)(F)F)cc1)C1CCC(=O)N(CCc2cccc(F)c2)C1 (centres undefined)
→ /	-2%	14%	-4%	-5%	6%	1%	/
#26 Cc1ccc(OCc2nn3c(-c4ccco4)nnc3s2)cc1
→ -1.3%	16%	-14%	-104%	-4%	26%[46.1 µM]	-1%	-10%
#27 CCOC(=O)Cn1nc(-c2ccccc2)c(-c2ccccc2)nc1=O
→ /	0%	15%[46.1 µM]	-3%	-14%	13%[46.1 µM]	1%	/
#28 O=C(COC(=O)CCS(=O)(=O)c1ccc(Cl)cc1)NCCc1ccccc1
→ -3.0%	-3%	11%	-14%	-6%	?	-5%	6%
#29 O=C(NC1CCCc2ccccc21)C1CCCO1 (centres undefined)
→ 1.2%	17%	-5%	5%	11%	19%	-2%	-8%
#30 O=C(NCc1ccccc1)C1=C[C@H](c2ccc3c(c2)OCO3)C[C@H](OCCCCO)O1
→ /	9%	/	2%	10%	/	-1%	/
#31 CN1CC=C2C(C#N)=C(N)C(C#N)(C#N)C(c3cccc(Cl)c3Cl)C2C1 (centres undefined)
→ -5.6%	-3%	?	-1%	?	-2%&-15%	-7%	-1%
#32 O=C1CCCN1CCCNCC(O)c1ccccc1 (centres undefined)
→ /	-4%	-4%[46.1 µM]	2%	-2%	-2%[46.1 µM]	-1%	/
#33 COc1cc(C(=O)Nc2ccc(NC(=O)c3ccco3)nc2)cc(OC)c1OC
→ -0.5%	-3%	?	-5%	-19%	-1%[46.1 µM]	-2%	3%
#34 Oc1ccc(Oc2ccc3c(C(F)(F)F)cc(C(F)(F)F)nc3n2)cc1
→ -6.8%	-7%	-16%	-11%	?	?	-12%	6%
#35 COc1ccc(N2CC(NS(=O)(=O)c3cccs3)CC2=O)cc1OC (centres undefined)
→ /	0%	18%	/	-13%	6%[46.1 µM]	3%	/
#36 Cn1cccc1C(=S)N=P(C1CCCCC1)(N1CCOCC1)N1CCOCC1
→ -7.4%	2%	16%	-12%	/	1%	2.8µM*	16%
#37 CCCCNC(=O)C1(NC(=O)Nc2ccccc2)CCCCC1
→ /	3%	/	2%	6%	/	0%	/
#38 Cc1cc2cc(CCNC(=O)CCCc3ccccc3)c(=O)[nH]c2cc1C
→ /	3%	/	-13%	-17%	/	1%	/
#39 CC1CCCN(C(=O)C(C)Sc2nc(-c3ccccc3)cc(C(F)(F)F)n2)C1 (centres undefined)
→ -7.2%	12%	-16%	3%	/	?	-24%	-1%
#40 CCC(O)CNC(=O)NC(=C(Cl)Cl)c1ccc(C)c(F)c1 (centres undefined)
→ -2.9%	19%	/	-4%	?	/	10%	3%
#41 CCc1ccc(NC(=O)COc2ccc(Br)cn2)cc1
→ /	4%	29%[46.1 µM]	/	44%[activator]	?	1%	/
#42 CCC(C)NC(=O)C1CCN(C(=O)COc2ccc3c4c(c(=O)oc3c2C)CCCC4)CC1 (centres undefined)
→ /	5%	/	10%	-8%	/	-2%	/
#43 COc1ccc(C(=O)NCCS(=O)(=O)N2CCC3(CC2)OCCO3)cc1
→ /	-1%	12%	/	-1%	-2%	0%	/
#44 COc1ccccc1NC(=O)CSc1ncc(CO)n1Cc1ccc(F)cc1
→ -1.5%	11%	-9%[46.1 µM]	-15%	-27%&-10%	/	-2%	-11%
#45 COCCNC(=S)N/N=C(\C)c1ccc(Cl)s1
→ /	-25%	-10%	-35%	0%	6%[46.1 µM]	0%	/
#46 O=C(NCCN1CCCC1=O)Nc1ccccc1
→ -4.3%	5%	?	-1%	10%	-10%	3%	-15%
#47 COc1ccc(-c2cc(C(=O)O)n(Cc3ccccc3)n2)cc1
→ -3.3%	/	-16%[46.1 µM]	/	-9%	2%[46.1 µM]	/	-9%
#48 CCc1ccc2c(c1)c1nnc(NN)nc1n2CC
→ -5.7%	-4%	?	18%	-11%	?	-20%	?
#49 Cc1ccccc1Oc1ccc(S(=O)(=O)NCCC(=O)O)cc1
→ -1.0%	0%	?	-1%	-8%	3%	11%	-7%
#50 Cc1ccccc1NC(=O)CSc1nnc(NC(=O)c2ccco2)s1
→ /	17%	?	9%	6%	4%	-6%	/
#51 COC(=O)c1c(N)sc(C(C)=O)c1C
→ -7.5%	-4%	/	-6%	-2%	/	-1%	5%
#52 CCc1cccc(CC)c1-n1c(SCC(=O)c2c(N)n(C)c(=O)n(C)c2=O)nnc1-c1cccnc1
→ -1.9%	11%	6%	3%	11%	9%	-26%	?
#53 CCc1ccc(-n2cnc3cc(C(=O)NCc4ccc(C)cc4)ccc32)cc1
→ 1.3%	/	?	/	2%	/	/	16%
#54 CN(C)c1ccc(C=c2c3ccccc3n3c2cc(-c2ccc(Cl)cc2)[n+]3C)cc1
→ /	?	?	/	?	?	/	/

2 compounds drawn at random from the list so far, as already listed:
Each structure is followed by: Cruzain Triton	RE007 growth inh	Lassa entry inh	NS1 inh	2A StopGo	MARV entry inh	SARS PLP yeast	Cruzain inh noDet
#13 Cc1ccc(C)c(-c2cc(C(=O)NCc3cccs3)c3ccccc3n2)c1
→ -4.5%	-10%	-21%	3%	-17%	-4%	-10%	0%
#37 CCCCNC(=O)C1(NC(=O)Nc2ccccc2)CCCCC1
→ /	3%	/	2%	6%	/	0%	/
